Compound activity from PubChem BioAssay.
RecA intein inh = inhibitors of M. tuberculosis RecA intein splicing | inhibition, %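 (about 9 µM by stock and volumes)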 | cell-free RecA intein splicing, fluorescence | 0.75% of 290,000 active | P9WHJ3; in the data active means inhibition above about 30%; inconclusive means no clear call, values can overlap the other calls;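 further: 0% = vehicle wells and 100% = reference inhibitor control wells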
Target sequence (P9WHJ3 whole entry, looked up): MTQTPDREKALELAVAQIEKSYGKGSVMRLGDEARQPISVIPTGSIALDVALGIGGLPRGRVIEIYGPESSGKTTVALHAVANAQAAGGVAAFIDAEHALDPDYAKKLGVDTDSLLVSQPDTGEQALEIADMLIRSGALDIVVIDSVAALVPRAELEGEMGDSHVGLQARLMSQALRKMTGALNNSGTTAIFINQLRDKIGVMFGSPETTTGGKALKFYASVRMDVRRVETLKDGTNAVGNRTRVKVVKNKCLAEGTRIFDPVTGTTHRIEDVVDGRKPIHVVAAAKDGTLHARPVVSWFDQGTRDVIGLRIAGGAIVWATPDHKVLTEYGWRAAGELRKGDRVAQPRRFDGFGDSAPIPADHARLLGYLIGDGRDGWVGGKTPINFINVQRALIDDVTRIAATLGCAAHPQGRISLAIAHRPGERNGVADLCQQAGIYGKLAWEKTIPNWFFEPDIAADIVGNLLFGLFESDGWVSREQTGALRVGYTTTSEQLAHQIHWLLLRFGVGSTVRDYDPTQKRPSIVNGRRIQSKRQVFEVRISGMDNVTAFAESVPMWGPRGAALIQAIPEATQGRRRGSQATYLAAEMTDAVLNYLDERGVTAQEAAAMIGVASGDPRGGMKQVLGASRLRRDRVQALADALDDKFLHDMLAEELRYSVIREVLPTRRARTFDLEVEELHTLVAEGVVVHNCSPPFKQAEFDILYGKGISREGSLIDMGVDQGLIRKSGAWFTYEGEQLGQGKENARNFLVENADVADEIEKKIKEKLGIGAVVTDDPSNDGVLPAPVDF
Mtb H37Rv = M. tuberculosis H37Rv growth inhibitors, H37Rv strain (AID 1626); M. tuberculosis H37Rv growth inhibition; higher % means a stronger effect; one-dose inhibition, % at 10 µM; IC50 in µM for titrated hits; 0.95% of 220,000 active;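 active means confirmed in a dose series; inconclusive means inhibition above 80% but not taken into the dose series; inactive means below 80% or under 30% at every dose of the series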;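 further: bacteria incubated seven days before Alamar blue readout; 0% = bacteria only wells and 100% = bacteria with antibiotic wells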
YopH PTP inh = blocks Yersinia enterocolitica YopH tyrosine phosphatase. 0.16% of 140,000 active. AID 898. fluorescence Ex485/Em525. inhibition, %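 (about 10 µM by stock and volumes)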;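 active means inhibition of 50% or more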;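 further: controls were vehicle for no effect and minimum signal wells for full effect; inactives centre near -20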
Mtb betalactam = beta-lactam sensitization of Mtb H37Rv | M. tuberculosis H37Rv growth with meropenem, percent inhibition; hits of this screen are not shown here | inhibition, % at 25 µM | 0.27% of 330,000 active | AID 434955;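 active means about 74% or more and at least 40 points above the plate without the antibiotic, then above 30% in a dose series; inconclusive means first-round hits that could not be retested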;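 further: growth measured after seven days incubation then overnight dye step; 0% = bacteria only wells and 100% = bacteria with antibiotic; twin plates without the antibiotic show which effects depend on it; some results filed as inactive read as strong as hits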
Arbovirus anti = arbovirus infection inhibition; AID 1251; inhibition, % at 10 µM; arbovirus infection cell-based antiviral screen; 0.37% of 200,000 active;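 active means inhibition from about 30%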;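 further: bluetongue infection of BSR cells; cell survival read as ATP light after 72 h; 0% = infected wells without compound and 100% = uninfected wells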
Arbovirus anti repeat = recorded beside Arbovirus anti, whose call it bears; inhibition, %; measured here: 10K subset replicate screen; many hits read low in the repeat;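 first of two repeat runs on a subset; 0% = infected and 100% = uninfected wells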
* hit, by the source's call; ? = inconclusive; / = not tested or not shown. Only part of the results is shown. The share of hits here may be higher or lower than overall.

The first 2 entries, to show the layout:
SMILES	RecA intein inh	Mtb H37Rv	YopH PTP inh	Mtb betalactam	Arbovirus anti	others
O=C(Nc1ccnn1C1CCN(Cc2ccn[nH]2)CC1)c1ccccc1	-2.0	/	/	7	/
Cc1ccc2c(c1)nnc1nnc(SCC(=O)O)n12	-1.1	-10%	/	2	/

The listing, from the first entry:
SMILES	RecA intein inh	Mtb H37Rv	YopH PTP inh	Mtb betalactam	Arbovirus anti	others
O=C(Nc1ccnn1C1CCN(Cc2ccn[nH]2)CC1)c1ccccc1	-2.0	/	/	7	/
Cc1ccc2c(c1)nnc1nnc(SCC(=O)O)n12	-1.1	-10%	/	2	/
COc1cc(/C=N/N2C(=O)C3C4C=CC(CC4)C3C2=O)ccc1O (centres undefined)	1.8	0%	/	-10	-1
OCc1ccc(OCCCOc2cccc3cccnc23)cc1	1.5	/	/	5	/
CCOC(=O)c1cn2nc(Oc3ccc(C#N)cc3)ccc2n1	1.1	5%	/	-7	/
O=C(N/N=C/C1CCCCC1)c1ccccn1	/	26%	-21	100	-3
C=CCOc1cccc(C2C(C(=O)c3cccs3)=C(O)C(=O)N2Cc2cccnc2)c1 (centres undefined)	-1.7	-8%	/	-2	2
O=C(N/C(=C\c1ccc(Cl)cc1)C(=O)N1CCOCC1)c1ccc([N+](=O)[O-])cc1	-2.2	-3%	/	5	3
CC(C)NC(=S)NC1(C)CCS(=O)(=O)C1 (centres undefined)	48*	4%	-20	-6	4
CCCN(CC(=O)Nc1ccc(Cl)cc1Cl)C(=O)CC(NC(C)=O)c1ccccc1 (centres undefined)	0.3	/	/	-1	/
COc1cccc(C(=O)Nc2cc(C)ccc2NC(=O)COc2ccccc2)c1	-0.5	/	2	-7	-8
COc1ccc(CCNC(=O)CN(Cc2ccc(Cl)cc2)S(C)(=O)=O)cc1OC	-1.1	/	/	-12	/
CN(Cc1ccc(F)cc1)C(=O)COc1ccccc1-c1ccccc1	12	11%	-18	8	-1
O=C(NCCCN1CCOCC1)c1sc2cc(F)ccc2c1Cl	1.1	-4%	/	-2	6
Cc1ccc(C(C)C)c(OCc2nn(CC(=O)c3ccc(Cl)cc3)c3[n+]2CCCCC3)c1	8.2	?	/	100	-29
O=C(NCc1ccon1)C1CCC(=O)N(CCc2ccc(Cl)cc2)C1 (centres undefined)	-0.8	/	/	-9	/
COC(=O)c1ccccc1NC(=O)CSc1nnc(C(CO)NC(=O)c2ccccc2)n1C (centres undefined)	0.1	13%	-24	1	5
CC(=O)Nc1ccc(NC(=O)CCCn2cnc3ccccc3c2=O)cc1	-1.8	/	/	-3	/
NNC(=O)CCCCCCCCCCOCCCCO	12	-9%	/	-5	/
CN1C(=O)c2cccc3c(N(C)C)ccc(c23)C1=O	-10	/	/	5	/
CC(=O)OC1(c2ccccc2)CCN(C2CCCCC2)CC1C (centres undefined)	-0.4	-3%	/	1	-11
COc1ccc(CNc2nc(-c3cccnc3)nn2C(=O)c2ccco2)cc1	-1.4	10%	10	-5	4
Cc1ccc(/C=C(/C#N)c2nc(CCN3C(=O)c4ccccc4C3=O)cs2)cc1	-4.9	-3%	-37	-2	3
CC(=O)N1CCCc2cc(S(=O)(=O)NCc3ccc(C)cc3)ccc21	-0.9	-2%	-37	0	6
CCCC(=O)NC(=S)NNC(=O)c1ccc([N+](=O)[O-])cc1	9.6	30%	-13	5	-30
Cc1nnsc1C(=O)NNc1c(Cl)cccc1Cl	-0.9	-9%	/	97	/
Cc1nc(SCC(=O)Nc2ccccc2)c2oc3ccccc3c2n1	-0.1	-9%	5	12	-5
COc1ccc(CCC(=O)NCCOc2ccccc2Cl)cc1	2.3	/	/	-4	/
COc1cccc(CC(=O)NC2CCCN(Cc3ccc(Cl)cc3)C2)c1 (centres undefined)	0.9	/	/	-4	/
COc1ccc2c(Cl)c(C(=O)NCCCn3ccnc3)sc2c1Cl	1.4	9%	-2	1	-19
COc1ccc(Nc2oc(COc3ccc(C)cc3)nc2C#N)cc1	1.3	-1%	-75	-6	6
CCOC(=O)c1c(C)c(C(=O)NCCCOC(C)C)c(C)n1C	-3.4	9%	-37	1	8
COc1cccc(NS(=O)(=O)c2cc3c(cc2C)NC(=O)CO3)c1	-5.0	/	/	-2	/
CC12CCC(C(=O)Nc3ncc([N+](=O)[O-])s3)(OC1=O)C2(C)C (centres undefined)	12	5%	15	-13	-18
CC1=NN(c2ccccc2)C(=O)C1N=Nc1ccc(N)cc1 (centres undefined)	16	70%	2	95	-10
COc1ccccc1CN(CC(=O)NCc1ccco1)C(=O)CNS(=O)(=O)c1ccccc1	4.3	4%	-36	-3	0
COc1cc([N+](=O)[O-])ccc1NC(=O)Cc1ccc(F)cc1	6.1	-4%	-4	-4	2
CCOC(=O)c1c(C)nc2c(c1C)/C(=N/O)CC(C)(C)C2	/	-11%	-58	-1	-5
O=C(NCc1ccccc1)c1ccc(F)c(S(=O)(=O)N2CCOCC2)c1	-0.7	2%	-39	-3	8
O=c1cc(CN2CCN(c3cccc(C(F)(F)F)c3)CC2)nc2sccn12	1.6	9%	/	5	/
O=C(NCCc1ccccc1)C1CCCN1C(=O)NCc1ccccc1 (centres undefined)	2.4	-10%	1	-5	0
CCC(=O)N1CCN(c2ccc(Cl)cc2NC(=O)c2ccc(N3CCCC3)c([N+](=O)[O-])c2)CC1	-3.5	47%	-42	97	-5
COc1ccc(CCN2C(=O)CC(Cc3ccc(C)cc3)C2=O)cc1OC (centres undefined)	1.6	-2%	/	-3	-5
CCCn1c(=N)n(CC(=O)c2ccc([N+](=O)[O-])cc2)c2ccccc21	-4.5	15%	/	5	-10
COC(=O)CCN(C(=O)C12CC3CC(CC(C3)C1)C2)c1ccccn1	-3.0	-9%	-12	10	14
Fc1ccc(CNC2CN3CCC2CC3)cc1 (centres undefined)	0.0	/	/	6	/
O=C(CCC1CCCN(C(=O)c2cccs2)C1)N1CCN(c2ccccn2)CC1 (centres undefined)	-1.9	-4%	/	-8	-5
C=CCN1C(=O)c2ccc(C(=O)N(C)Cc3ccc(C)o3)cc2C1=O	-2.8	/	/	-18	/

Ordered by heavy-atom count (smallest number first): part of the list above.
SMILES	RecA intein inh	Mtb H37Rv	YopH PTP inh	Mtb betalactam	Arbovirus anti	others
CCCC(=O)NC(=S)NNC(=O)c1ccc([N+](=O)[O-])cc1	9.6	30%	-13	5	-30
CC1=NN(c2ccccc2)C(=O)C1N=Nc1ccc(N)cc1 (centres undefined)	16	70%	2	95	-10
O=C(NCCCN1CCOCC1)c1sc2cc(F)ccc2c1Cl	1.1	-4%	/	-2	6
O=C(Nc1ccnn1C1CCN(Cc2ccn[nH]2)CC1)c1ccccc1	-2.0	/	/	7	/
Cc1ccc(/C=C(/C#N)c2nc(CCN3C(=O)c4ccccc4C3=O)cs2)cc1	-4.9	-3%	-37	-2	3
COc1ccccc1CN(CC(=O)NCc1ccco1)C(=O)CNS(=O)(=O)c1ccccc1	4.3	4%	-36	-3	0

(more compounds)
SMILES	RecA intein inh	Mtb H37Rv	YopH PTP inh	Mtb betalactam	Arbovirus anti	others
CN(C)/C=C(/C(=O)c1ccc(Cl)c(Cl)c1)S(C)(=O)=O	-3.2	-5%	/	-6	-2
COc1ccc(OC)c(N(CC(=O)NC2CC2)S(=O)(=O)c2ccc(C)cc2)c1	1.4	-3%	-44	4	-2	Arbovirus anti repeat=1
CN(C)S(=O)(=O)c1cccc(NC(=S)N/N=C/c2ccc(O)c(O)c2O)c1	7.7	6%	/	/	/
CC(C)CC(C(=O)Nc1ccccc1)N1C(=O)C2C3C=CC(C3)C2C1=O (centres undefined)	-4.0	0%	/	0	8
COc1ccc(CN2C(=O)NC(=O)/C(=C\c3cccc(OC)c3OC)C2=O)cc1	-0.3	7%	/	4	-1
Cc1ccc(C(=O)OCC(=O)Nc2c(Cl)cc(S(N)(=O)=O)cc2Cl)o1	0.1	0%	/	-9	/
CNC(=O)c1ccc(N(Cc2ccccc2)S(C)(=O)=O)cc1	-1.0	-7%	-29	-7	6
CC(OC(=O)C1=NNC(=O)CC1)C(=O)Nc1ncc(Cl)cc1Cl (centres undefined)	-3.2	-7%	/	-1	1
O=C(OC(C(=O)NCC1CCCO1)c1ccc(F)cc1)c1ccco1 (centres undefined)	-3.1	-15%	-26	-19	7
CCOc1ccc2nc(SCC(=O)NNC(=O)c3ccco3)c(C)cc2c1	-1.3	/	/	3	/
CN(C(=O)c1cc2n(n1)C(C(F)(F)F)CC(c1ccco1)N2)c1ccc(OC(F)(F)F)cc1 (centres undefined)	-3.7	-2%	-44	4	-9
CC1CCN(C(=O)COC(=O)c2ccc(Br)o2)CC1	-0.7	3%	-19	0	6
Oc1ccc(Br)cc1/C=N/N1CCCCC1	-2.3	-3%	-9	-9	0
CCNC(=S)N/N=C/c1ccc(OCC(=O)Nc2ccc(C)cc2)cc1	2.7	?	-1	55	0
COc1ccc(-n2nc(C(=O)NCC(=O)N3CCN(c4cccc(Cl)c4)CC3)c3ccccc3c2=O)c(OC)c1	2.7	/	/	4	/
CC(C)(C)NC(=O)NC(=O)COC(=O)c1ccc(OC(F)F)cc1	1.1	2%	-14	2	0
Cc1ccc(NC(=O)CSCC(=O)Nc2ccccc2N2CCCCC2)cc1	4.4	/	/	-6	/
Cc1nn(CCCC(=O)Nc2cccnc2Cl)c(C)c1[N+](=O)[O-]	0.3	2%	/	-6	10
COc1ccccc1CN1C(=O)c2cccc3cccc(c23)C1=O	-0.4	-6%	-14	4	-12
O=C(CNS(=O)(=O)c1ccc(C(=O)N2CCOCC2)cc1)N1CCOCC1	-2.2	1%	-4	-11	3
Cc1ccc(S(=O)(=O)N(CC(=O)N=Nc2c(O)[nH]c3ccccc23)c2cccc(C)c2)cc1	9.5	4%	6	5	-3
C=CCOC(=O)C1=C(C)OC(N)=C(C#N)C1c1ccc(F)cc1 (centres undefined)	5.8	/	-22	-3	-2
CC(C)Sc1nc(N2CCOCC2)c2c(c1C#N)CC(C)(C)N(C)C2	0.8	-3%	2	1	5
C/C(CC(=O)Nc1cccc(C(F)(F)F)c1)=N/NC(=O)C(=O)NCCO	0.5	-14%	/	2	/
O=C(CNC(=O)c1ccc(Cl)cc1Cl)OCCCn1c(=O)[nH]c2ccccc21	-4.8	/	/	-9	/
CCn1c(SCC(=O)Nc2ccc(C)cc2)nc(O)cc1=O	-2.4	-3%	/	-2	/
COc1ccc(Nc2nc3ccccc3nc2NS(=O)(=O)c2cccs2)c(OC)c1	-6.5	-8%	/	-13	/
CC(C)(C)c1ccc(/C=N/N2CCN(c3ccccn3)CC2)cc1	4.2	0%	/	82	/
Cc1cccc(-n2ncc3c2CCCC3NC(=O)CN2CCCC2=O)c1C (centres undefined)	-5.2	/	/	9	/
O=C(CCc1nc(-c2ccccc2)c(-c2ccccc2)o1)OCc1ccc(Cl)cc1	5.0	2%	-9	95	2
CCCN1C2CCCC1CC(NC(=S)Nc1cccc(C)c1)C2 (centres undefined)	-2.6	-6%	/	0	-2
O=C1CCCN1CCCNC(=S)Nc1ccc(Nc2ccccc2)cc1	0.7	-3%	/	-6	-13
CS(=O)(=O)c1ccccc1C(=O)Nc1ccc2sccc2c1	-1.2	/	/	4	/
COc1ccc(CNS(=O)(=O)c2cc(OCC(N)=O)c(C)cc2Cl)cc1	0.1	-1%	0	-8	-3
COc1ccc(CC(=O)c2c(O)cc(O)cc2O)cc1OC	0.5	-4%	-20	13	2
Cc1ccc(N2C(=O)CC(=O)NC2=O)c(C)c1	0.4	/	/	4	/
CCC(C)NC(=O)Cc1cn(C)c2ccccc12 (centres undefined)	/	-6%	4	3	4
COc1ccc(Oc2nc(C)cc(C)c2C#N)cc1	2.3	4%	6	4	-1
O=C1OC(c2ccccc2)/C(=C(/O)c2ccc(Cl)cc2)C1=O (centres undefined)	0.9	-23%	-46	-2	1
O=C(O)c1ccc(NC(=S)NC2CCCCC2)cc1	0.0	8%	-22	-4	-7
Cc1oc(-c2ccc(Cl)cc2)nc1CS(=O)CC(=O)NCCN1CCCC1 (centres undefined)	-1.9	1%	/	0	-5	Arbovirus anti repeat=-1
NS(=O)(=O)c1ccc(NS(=O)(=O)c2ccc(NC(=O)C3CC3)cc2)cc1	-0.4	/	/	-5	/
Cc1nn(CC(=O)N2CCN(c3ccccn3)CC2)c(=O)c2cc3sccc3n12	1.3	/	/	5	/
COc1ccccc1N(C(=O)c1ccncc1)c1nc(-c2ccc([N+](=O)[O-])cc2)cs1	5.0	19%	-3	14	9
CCN(CC)CC(=O)NN=C(c1ccccc1)c1ccccc1	0.7	3%	-9	-1	0
CCn1nc(C)c(CNC(=O)CC2C(=O)NCCN2Cc2ccc(C)o2)c1C (centres undefined)	-5.2	-12%	/	1	-2
Cc1ccc(/C=N/Nc2ncc(Cl)cc2Cl)s1	-3.5	5%	-12	11	-19
